From PubChem
YopH PTP inh = inhibitors of Yersinia enterocolitica YopH tyrosine phosphatase | fluorescence Ex485/Em525 | inhibition, %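 (about 10 µM by stock and volumes)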 | 0.16% of 140,000 active | AID 898;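 active means inhibition of 50% or more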;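 further: controls were vehicle for no effect and minimum signal wells for full effect; inactives centre near -20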
Mtb bLac sens = beta-lactam sensitization of Mtb H37Rv; 0.27% of 330,000 active; M. tuberculosis H37Rv growth with meropenem, percent inhibition; hits of this screen are not shown here; inhibition, % at 25 µM;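 active means about 74% or more and at least 40 points above the plate without the antibiotic, then above 30% in a dose series; inconclusive means first-round hits that could not be retested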;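 further: growth measured after seven days incubation then overnight dye step; 0% = bacteria only wells and 100% = bacteria with antibiotic; twin plates without the antibiotic show which effects depend on it; some results filed as inactive read as strong as hits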
Arbovirus inh = blocks arbovirus infection. 0.37% of 200,000 active. AID 1251. inhibition, % at 10 µM. arbovirus infection cell-based antiviral screen;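 active means inhibition from about 30%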;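 further: bluetongue infection of BSR cells; cell survival read as ATP light after 72 h; 0% = infected wells without compound and 100% = uninfected wells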
Mtb H37Rv = M. tuberculosis H37Rv growth inhibitors, H37Rv strain (AID 1626). 0.95% of 220,000 active. inhibition, % at 10 µM; hits with a dose series show IC50 in µM. M. tuberculosis H37Rv growth inhibition; higher % means a stronger effect;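 active means confirmed in a dose series; inconclusive means inhibition above 80% but not taken into the dose series; inactive means below 80% or under 30% at every dose of the series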;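 further: bacteria incubated seven days before Alamar blue readout; 0% = bacteria only wells and 100% = bacteria with antibiotic wells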
RecA splice inh = inhibitors of M. tuberculosis RecA intein splicing. P9WHJ3. cell-free RecA intein splicing, fluorescence. inhibition, %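 (about 9 µM by stock and volumes)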. 0.75% of 290,000 active. AID 2221; in the data active means inhibition above about 30%; inconclusive means no clear call, values can overlap the other calls;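 further: 0% = vehicle wells and 100% = reference inhibitor control wells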
Target sequence (P9WHJ3 whole entry, looked up, canonical isoform): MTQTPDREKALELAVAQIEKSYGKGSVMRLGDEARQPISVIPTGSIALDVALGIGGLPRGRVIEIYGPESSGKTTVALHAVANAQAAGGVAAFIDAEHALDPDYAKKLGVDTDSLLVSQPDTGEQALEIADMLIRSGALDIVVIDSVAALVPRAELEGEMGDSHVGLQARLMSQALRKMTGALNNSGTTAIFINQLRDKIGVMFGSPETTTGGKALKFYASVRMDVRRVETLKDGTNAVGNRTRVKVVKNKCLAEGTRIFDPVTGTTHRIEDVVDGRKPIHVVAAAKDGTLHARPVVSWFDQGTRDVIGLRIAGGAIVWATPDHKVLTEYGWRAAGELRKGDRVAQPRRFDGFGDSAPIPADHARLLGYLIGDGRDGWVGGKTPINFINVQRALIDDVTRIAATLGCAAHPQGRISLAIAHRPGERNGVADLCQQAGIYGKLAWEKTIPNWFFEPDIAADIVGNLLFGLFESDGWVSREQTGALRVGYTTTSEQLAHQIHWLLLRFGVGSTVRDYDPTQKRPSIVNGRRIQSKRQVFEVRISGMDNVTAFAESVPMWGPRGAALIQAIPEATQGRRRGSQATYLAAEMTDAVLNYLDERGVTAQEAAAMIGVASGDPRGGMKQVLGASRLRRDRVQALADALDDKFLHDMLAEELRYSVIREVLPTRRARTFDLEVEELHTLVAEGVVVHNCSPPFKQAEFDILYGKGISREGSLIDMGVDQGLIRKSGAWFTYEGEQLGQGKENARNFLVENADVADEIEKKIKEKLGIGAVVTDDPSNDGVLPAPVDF
Arbovirus inh repeat = also measured in Arbovirus inh; calls as there; inhibition, %; measured here: 10K subset replicate screen; many hits read low in the repeat;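 first of two repeat runs on a subset; 0% = infected and 100% = uninfected wells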
* hit, by the source's call; ? = inconclusive; . = no result given. A portion of the library. The share of hits here may be higher or lower than overall.

SMILES	YopH PTP inh	Mtb bLac sens	Arbovirus inh	Mtb H37Rv	RecA splice inh	others
COc1ccccc1C1C(C(C)=O)=C(O)C(=O)N1c1ccc(O)cc1 (centres undefined)	.	9	.	.	-0.6
O=C(c1ccc(Cn2c(=O)[nH]c3ccccc3c2=O)cc1)N1CCN(c2ccccc2)CC1	-15	14	6	.	1.9
O=C(NC(=S)N(CCO)Cc1ccccc1)c1ccc(S(=O)(=O)N2CCCC2)cc1	.	-2	10	-8%	.
O=C(Nc1ccc2c(c1)OCO2)C1(S(=O)(=O)c2ccc(Cl)cc2)CC1	-50	?	-10	-1%	-3.9
COCCCNC(=O)CN1C(=O)/C(=C/c2ccccc2C)Sc2ccccc21	.	-4	2	12%	0.3
COc1ccc(Cc2ccc(OC)c(N)c2)cc1N	-4	-5	-1	5%	.
CCc1c(C)sc(NC(=O)c2cc(C)no2)c1C#N	-50	-4	4	-3%	0.0	Arbovirus inh repeat=4
O=C(OCC(=O)c1ccc(Cl)s1)c1ccccn1	-17	4	-6	2%	-1.5
Cc1ccc(C(=O)Nc2cc3c(cc2Cl)OCCCO3)cc1	-37	25	10	0%	5.5
Oc1ccc(O)c(-c2cnns2)c1	-8	6	-22	3%	2.4
O=C(COC(=O)c1ccc(NS(=O)(=O)c2ccc3c(c2)OCCO3)cc1)NC1CC1	-24	7	5	2%	-0.1
CCOc1ccc(/C=C/C(=O)c2cc(Br)ccc(=O)c2O)cc1	-22	34	-32	?	.

Five neighbouring entries already listed, for reference:
SMILES	YopH PTP inh	Mtb bLac sens	Arbovirus inh	Mtb H37Rv	RecA splice inh	others
O=C(OCC(=O)c1ccc(Cl)s1)c1ccccn1	-17	4	-6	2%	-1.5
Cc1ccc(C(=O)Nc2cc3c(cc2Cl)OCCCO3)cc1	-37	25	10	0%	5.5
Oc1ccc(O)c(-c2cnns2)c1	-8	6	-22	3%	2.4
O=C(COC(=O)c1ccc(NS(=O)(=O)c2ccc3c(c2)OCCO3)cc1)NC1CC1	-24	7	5	2%	-0.1
CCOc1ccc(/C=C/C(=O)c2cc(Br)ccc(=O)c2O)cc1	-22	34	-32	?	.

The list continues.
SMILES	YopH PTP inh	Mtb bLac sens	Arbovirus inh	Mtb H37Rv	RecA splice inh	others
O=C(CN1CCN(c2ccc(Cl)cc2[N+](=O)[O-])CC1)N1CCOCC1	.	-6	.	-8%	.
O=C(O)c1cc([N+](=O)[O-])cc([N+](=O)[O-])c1N1CCN(c2cccc(C(F)(F)F)c2)CC1	.	-2	.	.	1.4
CCOC(=O)CC(NC(=O)Cn1nnc(-c2ccccc2F)n1)c1ccc(OC)cc1 (centres undefined)	.	-1	0	1%	-1.4
CCOC(=O)NC(=O)/C(C#N)=C/c1ccc(N(C)C)cc1	.	-3	.	-13%	0.5
O=C(COc1ccc(S(=O)(=O)N2CCOCC2)cc1)N1CCN(Cc2ccc3c(c2)OCO3)CC1	-16	-16	-9	-2%	1.2
COc1ccc(N=C2SC(CC(=O)Nc3ccccc3)C(=O)N2CCN2CCOCC2)cc1 (centres undefined)	.	-6	3	10%	2.0
CC1CCCCC1NC(=O)Cn1nnc(-c2ccc(Cl)cc2)n1 (centres undefined)	-28	5	-4	-1%	.
COc1cc(C)c(S(=O)(=O)NOCc2ccccc2)c(C)c1C	.	6	.	.	1.4
Fc1ccc(NCc2nnc(SCc3ccccc3)o2)cc1	.	7	-14	3%	1.7
CC(=O)N1c2ccc(S(=O)(=O)NCCC(=O)N(C)C3CCCCC3)cc2CC1C (centres undefined)	.	7	.	.	0.0
Cc1nn(-c2ccccc2)c2c1C(c1c(C)[nH]c(C#N)c1C)C(C#N)=C(N)O2 (centres undefined)	21	4	0	-6%	10
CN(C)CCN=c1cc(-c2ccccc2)oc2ccc(Cl)cc12	.	.	-10	-4%	.
CC(C)CNS(=O)(=O)c1ccc(S(=O)(=O)NC2CCOC(C)(C)C2)cc1 (centres undefined)	-6	1	.	-6%	-2.8
N#CC1(NC(=O)COC(=O)c2cc([N+](=O)[O-])ccc2N2CCCC2)CCCCC1	.	-12	.	.	5.1
CCOC(=O)CNc1nc(Cl)nc(N2CCCCC2)n1	.	-6	.	-1%	-1.2
CCC1Oc2ccc(C)cc2N(Cc2cccc(C)c2)C1=O (centres undefined)	-38	5	0	18%	16
Cc1cc(-c2ccccc2C(=O)O)on1	-43	-7	-3	0%	1.5
CCOC(=O)N1CCN(C(=O)/C(=C/c2ccc(F)cc2)NC(=O)c2ccccc2)CC1	.	-10	.	.	-4.6
COc1ccc(N2CCN(C3=CC(=O)N(c4cccc(Cl)c4)C3=O)CC2)cc1	.	2	-8	0%	-0.1
O=C(NCC1CCCN(Cc2cccc(F)c2)C1)c1cccc2ccccc12 (centres undefined)	.	8	.	.	1.2
O=C(O)c1cc(-c2ccccc2Cl)n(-c2cccc(Cl)c2)n1	.	14	.	.	3.0
Cc1ccc(S(=O)(=O)N2CCCCC2)cc1NC(=O)CSCC(=O)O	.	-1	12	-6%	-1.6
COCCN1Cc2cccc(C(=O)Nc3cccnc3)c2C1=O	-33	-3	1	.	.
COC(=O)c1ccc(CN2[C@H](C(=O)OC)C[C@@]3(O)[C@H](O)[C@H](O)[C@H](O)C[C@@H]23)cc1	.	-12	.	-4%	-0.3
CCOC(=O)c1ccc(Nc2cc(C)nc3nc(C)nn23)cc1	-30	-10	0	.	0.5	Arbovirus inh repeat=4
CCc1ccc(NC(=O)C[n+]2cc(-c3ccc(C)cc3)n3c2CCC3)cc1	.	11	.	0%	0.1
Cc1nn(C)cc1S(=O)(=O)Nc1cccc(Cl)c1	.	1	.	.	0.1
Cc1ccc(C(=O)NCc2ccc(F)cc2)s1	.	8	.	.	-1.1
COc1cccc(-c2noc(-c3ccoc3C)n2)c1	.	-1	-1	8%	1.9
Cn1c(N)c(C(c2ccccc2)c2c(N)n(C)c(=O)n(C)c2=O)c(=O)n(C)c1=O	-19	-2	5	-6%	-5.0
CCc1ccc(S(=O)(=O)NCCc2csc(C)n2)s1	.	3	0	14%	3.6
Cc1ccc(C)c(S(=O)(=O)N2CCN(C(=O)C3CC3C)CC2)c1 (centres undefined)	.	-14	.	.	-6.2
CC(=O)Nc1ccc(S(=O)(=O)N2CCSC2c2ccccc2)cc1 (centres undefined)	-28	-4	-2	-5%	-1.0
O=C(CSC(=S)N1CCOCC1)Nc1ncc2c(n1)CCCC2=O	.	-6	.	-2%	0.0
CC/C(=N\NC(=O)c1ccc(N(C)C)cc1)c1ccccc1	-25	100	-2	-5%	-2.4
Cc1noc(C)c1COc1ccc(C(=O)Nc2cccnc2)cc1	.	.	0	3%	7.8
CC(C)C(=O)Nc1ccc(NC(=O)c2cc3ccccc3o2)cc1	2	-1	-16	-3%	-0.7
COC(=O)c1sc(N/N=C/c2ccc(C(C)C)cc2)nc1C	.	7	.	.	-2.1
O=C(O)/C=C/C(=O)NNC(=O)c1ccc(Br)cc1	0	-2	-9	-5%	-6.8
COc1ccc(S(=O)(=O)NCCSC(C)(C)C)c(Cl)c1Cl	-24	.	-1	2%	0.8
COc1ccc(N2C(=O)[C@@H]3[C@H](C2=O)[C@H](C(C)=O)N2c4ccccc4C=C[C@@H]32)cc1	.	-3	.	-3%	-11
COc1ccc(Nc2ccc(C(F)(F)F)cc2[N+](=O)[O-])cn1	.	5	.	.	2.3
O=C(CC1COc2ccccc2O1)NC1CCCCC1 (centres undefined)	25	-8	-1	-7%	-1.1
COc1ccc(-c2onc(C)c2-c2ccc3c(c2)OCCO3)c(O)c1	.	2	-10	11%	-0.3
CN(CC(=O)Nc1ccccc1Cl)C(=O)COc1cccc2c1OC(C)(C)C2	.	-7	.	.	-1.0
O=C(O)C(c1ccccc1)N1C(=O)c2ccccc2C1=O (centres undefined)	.	1	.	.	4.2
O=C(COC(=O)c1ccccc1SCC(=O)N1CCCC1)Nc1ccccc1	.	7	.	.	-3.0
CC(C)Cc1cc(C(=O)NCc2cccnc2)no1	-25	-7	11	-3%	0.7
CC(NC(=O)C1CCCN1S(=O)(=O)c1ccccc1)c1ccccc1 (centres undefined)	.	-3	.	.	4.1
Cc1ccc(C(=O)N(C)Cc2ccccc2)cc1S(=O)(=O)N1CCOCC1	.	-3	.	.	17
CC(=O)c1sc(NC(=O)CSC(C)C(=O)Nc2cc(C)on2)nc1-c1ccccc1 (centres undefined)	.	1	.	.	2.9
CN(C(=O)COc1ccccc1)c1nnc(-c2ccncc2)s1	-11	-12	5	-3%	-1.2
CC(=O)c1cccc(NC(=O)CCCNC(=O)c2ccc(Cl)cc2)c1	.	2	.	.	-1.2
O=C(CC1SC(N2CCCC2)=NC1=O)Nc1ccc(C(=O)N2CCN(c3cccc(Cl)c3)CC2)cc1 (centres undefined)	.	53	.	.	1.7
Clc1ccccc1C1Nc2cccc3cccc(c23)N1	.	-5	.	.	6.4
CN(C)C(=O)c1cn(-c2ccc(Cl)cc2)c(=O)c2ccccc12	.	-5	-8	-4%	-2.4
COc1ccccc1N1CCN(C(=O)CCSCc2ccccc2F)CC1	.	11	-1	2%	4.5
Cc1ccc(CNCC(O)(c2ccccc2)c2ccccc2)cc1	.	-3	.	.	-1.8
CN1CCN(C(=O)c2cc3ccccc3oc2=O)CC1	3	-2	-1	1%	1.2
CCOC(=O)C(=CNc1ccc(C)cc1C)C(=O)OCC	-35	25	8	6%	6.7
Additional entries follow:
SMILES	YopH PTP inh	Mtb bLac sens	Arbovirus inh	Mtb H37Rv	RecA splice inh	others
C=CCn1c(CSc2nc3ccccc3s2)nnc1SCC(=O)NCc1ccco1	-28	-6	5	-9%	7.6	Arbovirus inh repeat=2
CC1(C)Cc2c(c(-c3ccccc3)nc(N3CCCC3)c2C(N)=O)CO1	-25	-3	-3	3%	0.9
Cc1ccc(NC(=O)Nc2ccc3c(c2)N(C)C(=O)CS3)nc1	27	7	-14	-11%	2.4
CN(C(=O)CC1C(=O)NCCN1Cc1ccccc1C(F)(F)F)C1CCOCC1 (centres undefined)	.	-7	.	.	-2.2
Cc1ccc(OCC(=O)Nc2ccc3c(c2)OCO3)c([N+](=O)[O-])n1	-19	7	-1	-6%	0.0
CCNC(=S)N/N=C(\C)c1ccc(Cl)s1	-13	96	-11	?	3.7
O=C1CSC(c2ccccn2)N1c1ccc(Br)cc1 (centres undefined)	.	-8	9	4%	0.9
Cc1ccc(-n2ncc3c(=O)[nH]c(SCC(=O)N4CCN(c5ccccc5)CC4)nc32)cc1	20	1	-4	4%	-1.5
COc1ccc(OC)c(NC(=O)CSc2nc(=O)n(Cc3ccccn3)c3c2CCC3)c1	.	-6	.	.	-0.5
NC(=O)c1ccsc1N	.	7	0	-2%	-6.2
COc1cc(OC)c(OC)cc1CN1CCCC(C(=O)c2ccc3c(c2)OCO3)C1 (centres undefined)	.	3	0	1%	-3.6
COc1cccc(C(CC(=O)Nc2cccc3ccccc23)NC(=O)c2ccccc2)c1 (centres undefined)	-16	1	-15	-9%	-0.4
CCOC(=O)c1c(NC(=O)CC)sc(C(=O)N2CCCCC2)c1C	-5	-2	-2	-2%	3.9
CC(=O)Nc1cccc2c1C(=O)N(c1cccc(OC(C)=O)c1)C2=O	.	-2	7	0%	0.2
CCN(CC)S(=O)(=O)c1ccc2c(c1)N(CC(=O)N1CCCC1)C(=O)CO2	.	-7	.	.	0.5
CCn1c(Cn2nnc(-c3ccccc3)n2)nnc1SCC(=O)N1CCOCC1	12	0	9	-6%	-0.6
CCN(CC(=O)Nc1cc(Cl)ccc1C)C(=O)CSCc1c(C)noc1C	.	-9	.	.	2.1
COc1ccc(CCC(=O)Nc2ccc3c(c2)OCCO3)cc1	-24	87	-5	-2%	0.7
CCOc1ccc(NC(=O)CNS(=O)(=O)c2c(C)cc(C)cc2C)cc1	.	-4	.	.	3.8
O=C(Nc1ccc(S(=O)(=O)NCc2ccco2)cc1)c1cccc(F)c1	.	-3	.	.	0.9
COc1ccc(-c2cc(C(=O)NN)n(-c3ccccc3)n2)cc1	-16	82	-9	-4%	7.3
N#CCC(=O)N1CCCCCC1	-49	-11	-4	.	-1.2
C/C=C/c1ccc(OCCN2CCc3ccccc3C2)c(OC)c1	-24	4	-2	7%	.
C/C(=N\Nc1ccccc1C(=O)O)c1ccncc1	.	-3	.	.	-2.0
CCC(CO)(C(=O)OC1CC2CCC(C1)N2C)c1ccccc1 (centres undefined)	.	3	.	.	-0.6
O=C1C(=O)N(CCCc2ccccc2)c2ccccc21	.	6	.	.	7.8
Cc1nc(C(=O)O)sc1C1(C)CC(c2cccc([N+](=O)[O-])c2)=NO1 (centres undefined)	.	-7	.	-13%	-0.4
CCc1cc(-c2ccc3c(c2)COc2c4ccccc4nn2-3)on1	.	37	.	-2%	-2.4
O=C(Nc1ccccc1)c1cnc2ccccc2n1	10	1	-1	4%	-2.7
